# Env fusion inh: inhibitors of HIV Env-mediated cell fusion; 360,000 tested, 1.1% active; inhibition, % at 12.3 µM; HeLa-JRFL Env/CEM21 cell fusion, luciferase;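 active means mean replicate inhibition score of at least 50 and every replicate individually at or above 50; inconclusive means only one of the two criteria met; inactive means mean below 50 and not all replicates reaching 50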;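 further: 0% = plate neutral controls and 100% = maraviroc near 300 nM; one replicate is shown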
# MT1-MMP act inh: blocks activation of human MT1-MMP; 360,000 tested, 0.061% active; GFP/RFP ratio change, % at 20 µM; HT1080 RFP-PRO-GFP cells, GFP/RFP ratio fluorescence, overnight; percent of plate control window, DMSO zero; P50281;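 active means GFP/RFP ratio change of at least 30% with cell ATP level not reduced by more than half and red fluorescence within 50% of control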; further: strong numbers were not always called active
#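 Assay system: HT1080 RFP-PRO-GFP cells | Dosing: 20 µM single dose, 1% DMSO | Incubation: Cells overnight before dosing, compound overnight, 37 °C, 5% CO2 | Evaluation: GFP/RFP fluorescence ratio | Control set: DMSO-only wells and HT1080 RFP-L50D-GFP cell wells as references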
# MT1-MMP act inh RFP: further read-out of MT1-MMP act inh, marked with its call; RFP signal change, %; measured here: RFP expression control read;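 0 = vehicle wells; hits needed this value within 50% of zero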
# * hit, by the source's call; i = inactive; u = inconclusive. This is a subset; the hit share may differ from the screen's.
# Results follow in this order: Env fusion inh | MT1-MMP act inh | MT1-MMP act inh RFP
O=c1[nH][nH]c2c1[C@H](CCc1cccc(Cl)c1)O[C@H](C1CCCC1)C2
    -6 | 7 | 1
COC(=O)[C@@]1(Sc2ccc(C)cc2)CC(=O)N(C(=O)C2CC2)[C@@H]1c1ccccc1
    -3 | 1 | -1
COc1cccc(C(=O)N2CCC[C@H]2C(=O)N2CCC[C@H]2C(=O)N[C@H](C)c2ccccc2)c1
    0 | 2 | 3
Cc1ccc(S(=O)(=O)N2[C@H](CC(=O)c3cccc4ccccc34)OC[C@@H]2C)cc1
    -16 | 0 | 4
COc1ccc(OCC(=O)NC2CCSc3ccccc32)cc1 (stereo unspecified)
    -15 | -1 | -2
Cc1cccc(C)c1NC(=O)C(C1CC1)n1c(=O)c(-c2cc3ccccc3[nH]2)nc2ccccc21 (stereo unspecified)
    -2 | -2 | -5
O=C(C(O)c1ccccc1)N1CCN(S(=O)(=O)c2ccc(C(F)(F)F)cc2)CC1 (stereo unspecified)
    20 | -4 | -3
CC(C)CN1C(=O)c2ccccc2C1c1nnnn1-c1ccc2c(c1)OCCO2 (stereo unspecified)
    -23 | 3 | 2
C[C@H](NC(=O)[C@@H]1CCCN1C(=O)[C@@H]1CCCN1C(=O)OC(C)(C)C)c1ccccc1
    -7 | 5 | 6
CC1(C)OC(=O)C2=C(C[C@@H](C3CCCCC3)O[C@H]2c2ccccc2)O1
    6 | 2 | -4
CCCCOCCCNC(=O)C[C@@H]1C[C@@]2(C(=O)OC)CCCCC=C2N(CCC2=CCCCC2)C1=O
    64* | -5 | -7
COc1cccc(CNC(=O)[C@@H]2CCCN2C(=O)[C@H]2CCCCN2C(=O)c2c(F)cccc2F)c1
    -6 | 6 | 6
CC(=O)CC[N+](C)(C)C
    1 | -2 | 5
O=C(NCCc1ccc2c(c1)OCO2)Oc1ccccc1
    4 | 2 | 0
CCOC(=O)C(Cc1ccccc1)C1(C)Oc2ccccc2O1 (stereo unspecified)
    0 | 1 | -6
CC(C)c1cc(Cn2c3ccccc3c(=O)n2C(C)Cn2cc(COc3ccccc3)nn2)on1 (stereo unspecified)
    28 | 0 | 2
COc1ccc(OC(=O)N2C/C(=C/c3ccccc3)C(=O)/C(=C\c3ccccc3)C2)cc1
    i | -19 | -21
COC(=O)CCC1(C(N)=O)CCC(=O)c2ccccc21 (stereo unspecified)
    2 | 3 | 2
COC(=O)C1=CN(c2cccc(OCc3ccccc3)c2)C(N)=C(C#N)C1c1cccc(F)c1 (stereo unspecified)
    23 | 3 | -19
O=C(CCNC(=O)c1ccc([N+](=O)[O-])cc1)NCC1COc2ccccc2O1 (stereo unspecified)
    18 | 3 | 0

# Next compounds follow.
# Results follow in this order: Env fusion inh | MT1-MMP act inh | MT1-MMP act inh RFP
COCCNc1ncnc2c1ncn2[C@H]1CN(Cc2ccc(OC)cc2)C[C@@H](CO)O1
    15 | 0 | 3
Cc1cccc(C2c3c(n(C)c(=O)n(C)c3=O)N=C3c4ccccc4C(=O)C32)c1 (stereo unspecified)
    12 | -1 | 4
Cc1ccc(S(=O)(=O)N2[C@@H](Cc3ccccc3)CO[C@H]2CC(=O)c2cccc3ccccc23)cc1
    -18 | -1 | -5
Cc1ccc(S(=O)(=O)Nc2ccccc2O)cc1
    -6 | -3 | 4
CCS(=O)(=O)N1Cc2cc(C(=O)N(C)C)nc(-c3cccc(-c4ccc(F)cc4)c3)c2[C@H]1CCO
    1 | 3 | 5
O=C(CN1CSCC1=O)N1CCN(S(=O)(=O)c2cc(C(F)(F)F)ccc2Cl)CC1
    -7 | -4 | -6
COc1ccc([C@H]2C[C@H](O)C[C@@H](CCn3cc(-c4ccccc4)nn3)O2)cc1
    19 | 5 | 4
CCCCCCn1cc(CN2CC(N3CCN(CCN(C)C)CC3)CS2(=O)=O)nn1 (stereo unspecified)
    -14 | 0 | 4
COc1ccccc1-c1ncn(Cc2cccc(-c3ccccc3)c2)c1-c1ccco1
    16 | -6 | -22
COC(=O)C[C@H]1CC[C@@H](NC(=O)Nc2cccc(OC)c2)[C@@H](CO)O1
    -18 | 5 | 6
NS(=O)(=O)c1ccc(NC(=O)c2cccc3cc4ccccc4nc23)cc1
    14 | -11 | -3
CCCCCCCCN1C(=O)[C@H](CC(=O)N2CCN(C(=O)C3CC3)CC2)C[C@@]2(C(=O)OC)CC(C)(C)CC=C12
    -6 | -4 | -9
COC(=O)[C@]12CCCCC=C1N(Cc1cccc3ccccc13)C(=O)[C@H](CC(=O)NCc1ccc(C)o1)C2
    4 | -8 | -12
Cc1cc(C)c(NC(=O)C2C(=O)Nc3ccccc3C(=O)N2C(C)(C)C)c(C)c1 (stereo unspecified)
    u | 1 | 0
COC(=O)C1=NNC(C(=O)OC)C1c1ccccc1 (stereo unspecified)
    -60 | 4 | 4
Cc1cccc(C)c1NC(=O)C1(C)CN(S(C)(=O)=O)CC(=O)N1CCc1c[nH]c2ccccc12 (stereo unspecified)
    29 | 8 | 8
CC(C)(C)NC(=O)C1c2ccccc2OCC(=O)N1CCCN1CCOCC1 (stereo unspecified)
    -88 | 6 | 8
OC[C@@H]1CN(Cc2cccnc2)C[C@H](n2cnc3c(NC4CCCC4)ncnc32)O1
    14 | 2 | 3
NC(N)=NN=C(c1ccc(F)cc1)c1ccc(C(F)(F)F)cc1
    -274 | 21 | -1
O=C1CCC(OCc2ccccc2)CCN1[C@H](CSc1ccccc1)Cc1ccccc1 (stereo partly specified)
    -27 | -3 | -5

# Compound profiles, from the list above.
# Profile of `Cc1ccc(S(=O)(=O)N2[C@H](CC(=O)c3cccc4ccccc34)OC[C@@H]2C)cc1` → Env fusion inh: -16; MT1-MMP act inh: 0; MT1-MMP act inh RFP: 4
# Profile of `COC(=O)[C@]12CCCCC=C1N(Cc1cccc3ccccc13)C(=O)[C@H](CC(=O)NCc1ccc(C)o1)C2` → Env fusion inh: 4; MT1-MMP act inh: -8; MT1-MMP act inh RFP: -12

# Back to the main list, repeating the four entries before the break.
# Results follow in this order: Env fusion inh | MT1-MMP act inh | MT1-MMP act inh RFP
CC(C)(C)NC(=O)C1c2ccccc2OCC(=O)N1CCCN1CCOCC1 (stereo unspecified)
    -88 | 6 | 8
OC[C@@H]1CN(Cc2cccnc2)C[C@H](n2cnc3c(NC4CCCC4)ncnc32)O1
    14 | 2 | 3
NC(N)=NN=C(c1ccc(F)cc1)c1ccc(C(F)(F)F)cc1
    -274 | 21 | -1
O=C1CCC(OCc2ccccc2)CCN1[C@H](CSc1ccccc1)Cc1ccccc1 (stereo partly specified)
    -27 | -3 | -5
O=C(Cn1c(=O)ccn(Cc2ccccc2)c1=O)Nc1cccc(S(=O)(=O)N2CCOCC2)c1
    -11 | -2 | 0
COC(=O)C1(C(=O)OC)Cc2ccccc2N(S(=O)(=O)c2ccc(C)cc2)C1CC(C)=O (stereo unspecified)
    -8 | 3 | 5
Cc1cccc(C)c1-n1nnnc1C(c1ccnc2ccccc12)N(CCC#N)Cc1ccccc1 (stereo unspecified)
    7 | 0 | -14
O=C1NC(c2cccc3ccccc23)Nc2ccccc21 (stereo unspecified)
    -414 | 17 | -1
COc1ccc(C(C#N)=C2C=CC(=NO)c3ccccc32)cc1
    -164 | 1 | -9
COc1ccc([C@H]2CC(=O)C[C@@H](CCn3cc(-c4nccn4C)nn3)O2)cc1
    5 | 3 | 4
CCCCNC(=O)C1C(c2ccc(OC)cc2)=Nc2ccccc2N1C(=O)c1cccnc1 (stereo unspecified)
    1 | 3 | 6
CCOc1ccc(N2C(=O)C(C)CNC2=S)cc1 (stereo unspecified)
    -10 | 0 | 3
Cc1csc(N=Nc2ccc(N(C)C)cc2)[n+]1[O-]
    27 | 44 | -3
CC(C)Nc1ncnc2c1ncn2[C@H]1CN(Cc2ccc3c(c2)OCO3)C[C@@H](CO)O1
    -13 | -1 | 1
Nc1[nH]c(C(=O)c2ccccc2)c(-c2ccccc2C(F)(F)F)c1C(=O)c1cccs1
    1 | 1 | -1
COC(=O)[C@@]12C[C@@H](CC(=O)NCc3cccc(C(F)(F)F)c3)C(=O)N(Cc3ccccc3)C1=CCC(C)(C)C2
    7 | -9 | -11
CCCCOCCCNC(=O)C[C@@H]1C[C@@]2(C(=O)OC)CCCCC=C2N(Cc2ccco2)C1=O
    62* | 6 | 5
COC(=O)C[C@H]1CC[C@@H](NC(=O)Nc2ccc3c(c2)OCO3)[C@@H](CO)O1
    -19 | -2 | 1
COc1cccc(C(=O)N2CCC[C@H]2C(=O)N2CCC[C@H]2C(=O)N[C@@H](C)c2ccccc2)c1
    -2 | 0 | 2
CCCCCCCCN1C(=O)[C@H](CC(=O)NCCC(C)C)C[C@@]2(C(=O)OC)CCCCC=C12
    -30 | -7 | -13
Oc1[nH]c2ccccc2c1N=Nc1ccccc1Cl
    -5 | -55 | -3
C#CCNC(=O)C[C@@H]1C[C@@]2(C(=O)OCC)CCCC=C2N(CCCCCCCC)C1=O
    u | 7 | -6
CC(C)(C)NC(=O)C(C1CC1)n1c(=O)c(-c2ccco2)nc2ccccc21 (stereo unspecified)
    16 | -5 | 5
COC(=O)C[C@@H]1CC[C@@H](NC(=O)c2ccccc2F)[C@@H](CO)O1
    u | -2 | 3

# (continued)
# Results follow in this order: Env fusion inh | MT1-MMP act inh | MT1-MMP act inh RFP
O=C1NC[C@H](Cc2ccccc2)N(C[C@@H]2CCCN2C[C@H](Cc2ccc(O)cc2)N2C[C@H](Cc3ccc(O)cc3)N(CC3CCCCC3)C(=O)C2=O)C1=O
    -5 | 7 | 8
CCOC(=O)[C@]12CCCC=C1N(Cc1cccc3ccccc13)C(=O)[C@H](CC(=O)N1CCN(C(=O)c3ccco3)CC1)C2
    -4 | 3 | -4
O=S1(=O)CCN(CCc2ccccc2)CC1
    7 | -1 | 1
O=C1NN=C(c2ccccc2)C1Cc1ccccc1 (stereo unspecified)
    22 | 11 | 3
COc1ccc(CCc2cc(OC)c(OC)c(OC)c2)cc1
    -440 | 17 | 0
CCOC(=O)/C=C1/SCC(=O)N1CC(=O)c1ccc[nH]1
    3 | -3 | 2
CCOC(=O)N1CCN(C(c2cc3ccccc3o2)c2nnnn2C(C)(C)C)CC1 (stereo unspecified)
    -7 | 5 | 2
O=C(NC1CCCC1)C1c2ccccc2OCC(=O)N1CCc1ccccc1 (stereo unspecified)
    -69 | 1 | 4
COc1ccc(NC(=O)c2ccc(-c3ccc(F)cc3)o2)cc1OC
    -5 | 16 | -8
CSCCC(C(=O)NC(C)(C)C)n1c(-c2ccccc2)nc2ccccc21 (stereo unspecified)
    56* | 3 | 2
CCCCN1C(=O)C(CC(=O)NCCCN(C)C)CC(C(=O)N(C(C)C)C(C)C)=C1C (stereo unspecified)
    -48 | 9 | 5
CC(=O)N1CC2(CC(c3ccccc3C(F)(F)F)=NO2)CN1c1ccc(Cl)cc1 (stereo unspecified)
    -65 | 0 | -7
O=C(Nc1ccc2c(c1)OCCO2)C1c2ccccc2OCC(=O)N1CCc1c[nH]c2ccccc12 (stereo unspecified)
    -204 | 8 | 3
COC(=O)c1cc(=O)nc(NN=Cc2ccc(C)cc2)s1
    -12 | 4 | 6
COc1cc(C=CC(=O)N2CCN(CC(=O)N3CCCC3)CC2)cc(OC)c1OC
    14 | 1 | 5
CCOc1ncnc2c1sc1nc3c(cc12)COC(C)(C)C3
    -9 | 1 | 2
COc1ccc(NC(=O)C(c2ccc(C(F)(F)F)cc2)n2c(=O)c(-c3cc4ccccc4[nH]3)nc3ccccc32)cc1 (stereo unspecified)
    17 | -11 | -15
COP(=O)(OC)OC(C(=O)c1ccccc1)c1ccccc1 (stereo unspecified)
    -1 | 5 | 6
Cc1cccc(C)c1NC(=O)C(c1cccc2ccccc12)n1c(=O)c(-c2cc3ccccc3[nH]2)nc2ccccc21 (stereo unspecified)
    u | 0 | -4
COC(=O)[C@@]12C[C@@H](CC(=O)NCC34CC5CC(CC(C5)C3)C4)C(=O)N(Cc3ccccc3)C1=CCC(C)(C)C2
    -17 | -22 | -24

# Other compounds:
# Results follow in this order: Env fusion inh | MT1-MMP act inh | MT1-MMP act inh RFP
Nn1c(-c2cccc(O)c2)nnc1-c1cccc(O)c1
    -20 | 2 | 1
O=C1c2ccccc2C(c2nnnn2Cc2ccccc2)N1CCc1ccc(O)cc1 (stereo unspecified)
    -27 | 4 | 0
CCC(c1nnnn1-c1ccc2c(c1)OCCO2)N1CCN(c2ccccc2OC)CC1 (stereo unspecified)
    16 | 2 | -5
COc1ccc(C2=Nc3ccccc3N(C(=O)c3ccc4c(c3)OCO4)C2C(=O)NCc2ccccc2)cc1 (stereo unspecified)
    -17 | -6 | -5
COCCCN1C(=O)C(CC(=O)NC(c2ccccc2)c2ccccc2)CC(C(=O)N2CCCCCC2)=C1C (stereo unspecified)
    -24 | 7 | 0
CCCCn1nnnc1C(c1cc2ccccc2o1)N1CCN(CC(=O)NC(C)C)CC1 (stereo unspecified)
    -23 | 3 | 2
Cc1cccc(Cl)c1NC(=O)NCCCN1CCCCC1C (stereo unspecified)
    10 | 2 | 5
COC(=O)[C@]12CCCCC=C1N(CCC1=CCCCC1)C(=O)[C@H](CC(=O)N1CCCCC1)C2
    10 | -3 | -5
CCCCCCCCN1C(=O)[C@H](CC(=O)NCc2ccc(C)o2)C[C@@]2(C(=O)OC)CCCCC=C12
    5 | 0 | -2
CC12C=CC(=O)C=C1CCC1C3CCC(O)(C(=O)CO)C3(C)CC(O)C12F (stereo unspecified)
    i | -1 | -1
COc1cccc(C(C(=O)NC2CCCC2)N2CCN(c3cc(C)ccc3C)CC2)c1OC (stereo unspecified)
    8 | -20 | -32
CCCCn1nnnc1C(c1ccccc1)N1CCN(C(=O)C2CCCO2)CC1 (stereo unspecified)
    15 | 6 | 2

# Assay outcomes from PubChem BioAssay.
